Rce1 inhib: inhibitors of yeast Ras-converting enzyme. Q03530. yeast membranes, quenched prenylated peptide cleavage fluorescence. calls only. 290,000 tested, 0.27% active;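 active means fall in fluorescence gain of 50% or more versus controls, with final raw signal at or below 3038400; inconclusive means same 50% fall but final raw signal above 3038400; inactive means fall in fluorescence gain under 50%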;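 further: plate controls were neutral control wells for no effect and wells lacking membranes for full effect; tested at 10 µM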
Target sequence (Q03530 whole entry, looked up): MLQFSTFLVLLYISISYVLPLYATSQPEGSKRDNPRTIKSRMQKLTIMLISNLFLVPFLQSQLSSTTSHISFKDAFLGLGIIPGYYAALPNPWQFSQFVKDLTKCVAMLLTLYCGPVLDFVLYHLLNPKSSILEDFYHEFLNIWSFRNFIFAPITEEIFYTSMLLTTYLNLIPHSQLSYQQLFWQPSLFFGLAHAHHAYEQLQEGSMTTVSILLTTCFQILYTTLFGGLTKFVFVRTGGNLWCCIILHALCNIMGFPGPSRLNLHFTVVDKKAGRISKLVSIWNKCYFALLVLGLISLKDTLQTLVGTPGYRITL
UUG fidelity: alters start codon recognition fidelity in yeast | S. cerevisiae UUG-firefly luciferase reporter, luminescence/redox ratio | activity score, % at 18.7 µM | 350,000 tested, 0.13% active | AID 602363;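 active means replicate mean at a twofold rise or more, about +100% in these data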;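 further: firefly luciferase made from a UUG start codon reports start codon fidelity; reporter light over untreated wells divided by growth signal over untreated wells; some hits fall short of that in this replicate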
PABP FP inh: PABP-poly(A) binding inhibition; P11940; PABP-poly(A) RNA binding, fluorescence polarization; inhibition, % at 35 µM; 290,000 tested, 1% active; AID 2014;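 active means 50% or more with normal probe brightness, or confirmed in later tests; inconclusive means above 50% with abnormal brightness, or retests that disagree; inactive means below 50% or failed in later tests; about a fifth of its hits are not listed in these tables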;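 further: calls also rest on retests at 20 µM and on dose response follow-up; controls were probe without protein and protein plus probe with vehicle; some compounds called inactive have numbers as strong as hits; many hits fall short of the cut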
Target sequence (P11940 whole entry, looked up): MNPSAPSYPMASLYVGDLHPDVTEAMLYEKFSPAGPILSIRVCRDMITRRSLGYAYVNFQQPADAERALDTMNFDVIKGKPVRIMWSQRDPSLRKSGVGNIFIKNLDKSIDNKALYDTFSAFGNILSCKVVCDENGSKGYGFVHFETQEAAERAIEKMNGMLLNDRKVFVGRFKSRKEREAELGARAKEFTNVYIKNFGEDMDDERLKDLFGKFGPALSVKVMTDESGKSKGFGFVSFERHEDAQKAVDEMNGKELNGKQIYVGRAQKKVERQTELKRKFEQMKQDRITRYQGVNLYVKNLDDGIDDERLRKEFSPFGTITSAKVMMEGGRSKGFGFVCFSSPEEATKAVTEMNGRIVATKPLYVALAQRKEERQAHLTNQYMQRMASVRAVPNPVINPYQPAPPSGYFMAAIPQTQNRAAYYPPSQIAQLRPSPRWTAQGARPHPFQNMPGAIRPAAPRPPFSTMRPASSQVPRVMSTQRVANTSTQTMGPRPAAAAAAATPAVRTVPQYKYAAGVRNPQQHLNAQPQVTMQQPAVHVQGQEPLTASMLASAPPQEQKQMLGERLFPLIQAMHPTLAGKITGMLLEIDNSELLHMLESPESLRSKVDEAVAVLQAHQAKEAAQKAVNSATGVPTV
Env fusion inh: inhibitors of HIV Env-mediated cell fusion | HeLa-JRFL Env/CEM21 cell fusion, luciferase | 360,000 tested, 1.1% active | inhibition, % at 12.3 µM | AID 651610;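 active means mean replicate inhibition score of at least 50 and every replicate individually at or above 50; inconclusive means only one of the two criteria met; inactive means mean below 50 and not all replicates reaching 50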;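 further: 0% = plate neutral controls and 100% = maraviroc near 300 nM; one replicate is shown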
eIF4H inh: inhibitors of RNA binding by human eIF4H | inhibition, % at 35 µM | AID 2012 | 290,000 tested, 0.94% active | Q15056 | eIF4H fluorescence polarization binding assay;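 active means 50% or more with normal probe brightness, or confirmed in later tests; inconclusive means above 50% with abnormal brightness, or retests that disagree; inactive means below 50% or failed in later tests; about a fifth of its hits are not listed in these tables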;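 further: calls also rest on retests at 20 µM and on dose response follow-up; 0% = protein and probe with vehicle and 100% = probe without protein; strong numbers were not always called active; many hits fall short of the cut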
MT1-MMP act inh: MT1-MMP (human) activation inhibition; HT1080 RFP-PRO-GFP cells, GFP/RFP ratio fluorescence, overnight; percent of plate control window, DMSO zero; 360,000 tested, 0.061% active; P50281; AID 651647; GFP/RFP ratio change, % at 20 µM;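 active means GFP/RFP ratio change of at least 30% with cell ATP level not reduced by more than half and red fluorescence within 50% of control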; further: strong numbers were not always called active
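Assay system: RFP-PRO-GFP reporter HT1080 cells; read-out basis: GFP/RFP fluorescence ratio; benchmarks: DMSO wells and RFP-L50D-GFP cells; doses: 20 µM single dose, 1% DMSO; schedule: overnight cell settling, then overnight compound exposure, 37 °C, 5% CO2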
CSC inhib: cancer stem cell inhibition | inhibition, % at 7.5 µM | 300,000 tested, 1.1% active | cancer stem cell-like cells viability, luminescence;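 active means mean at 75% or more and at least half the replicates too; inconclusive means mean and replicates disagree; tested in HMLE shEcad cells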;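 further: 0% = median of negative and 100% = median of positive control wells; the first replicate is given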
MT1-MMP act inh RFP: further read-out of MT1-MMP act inh, marked with its call; RFP signal change, %; measured here: RFP expression control read;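 0 = vehicle wells; hits needed this value within 50% of zero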
The depositor's hits bear a star; i = inactive; ? = inconclusive; · = no result given.

Molecule	Env fusion inh	MT1-MMP act inh	PABP FP inh	Rce1 inhib	eIF4H inh	CSC inhib	UUG fidelity	MT1-MMP act inh RFP
CN(C1CCCCC1)S(=O)(=O)c1ccc(S(=O)(=O)N(CC(=O)Nc2ccccc2)C2CC2)cc1	?	-1	-1	i	-4	-8	-20	-2
CCN(CC)CCN(C(=O)c1cc2c(ccc3ccccc32)oc1=O)c1nc2cc3c(cc2s1)OCCO3	-8	9	-36	i	-15	91*	-30	-3
CCN(CC)C(=O)Oc1cc(=O)n(C)c2ccccc12	·	5	-9	i	2	-6	4	6
Cc1ccc(C(=O)N[C@@H](Cc2ccccc2)C(=O)N2CCC3(CC2)NCCc2[nH]cnc23)cc1C	-4	3	·	i	·	-6	-16	0
O=[N+]([O-])c1cc2c(cc1CN1CCN(c3ccccc3F)CC1)OCO2	-64	-2	10	i	13	-2	16	-1
CN(C(=O)c1ccc(NC(=O)Cc2cccc(NC(=O)C3CCCN(C(=O)C4CCCC4)C3)c2)cc1)C1CC1 (stereo not given)	-28	2	·	·	·	·	-14	0
COc1ccc(C(=O)CC(=O)c2ccc(OC)cc2)cc1	-8	2	-12	i	-1	18	4	-2
COC(=O)c1ccc(N(CC(=O)NC2CCCC2)C(=O)CNC(=O)c2ccco2)cc1	·	-2	0	i	10	-3	-16	4
N=c1c2c(n(Cc3ccc(Cl)cc3)c3c1CCC3)CCC2	·	-19	-6	i	-8	·	-9	-24
COc1ccc(CNC(=O)C(c2ccco2)N(C(=O)CNS(=O)(=O)c2ccccc2)c2ccccc2C)cc1 (stereo not given)	13	-7	-2	i	-12	·	9	-7
COC(=O)N/N=C/c1cc(Br)ccc1O	-8	6	0	i	2	1	-14	5
COc1ccccc1CNS(=O)(=O)c1cccc2nsnc12	-2	1	-5	i	-14	8	-1	4
COC(=O)c1nc(Cl)c(Cl)c(N)c1Cl	-17	3	-7	i	5	-18	·	6
COc1cccc(-c2nnc(NC(=O)CCS(=O)(=O)c3ccc(C)cc3)o2)c1	-2	-1	·	i	·	1	-21	1
O=c1c2ccccc2nc(-c2ccco2)n1CCCn1ccnc1	-10	3	-2	i	-3	-3	-5	4
Cc1sc2ncnc(N(C)Cc3cccs3)c2c1C	·	-3	7	i	11	-1	·	-15
CC(Nc1nc(N2CCCC2)nc2ccccc12)c1ccccc1 (stereo not given)	-5	5	6	i	8	-15	14	2
CCSc1ccccc1C(=O)NCCc1ccccc1	25	4	13	i	1	7	·	5
C=CCn1c(O)c(C(CC)=Nc2ccccc2NC(=O)CC)c(=O)[nH]c1=O	-77	3	0	i	-7	-2	14	4
CCCS(=O)(=O)N1CCC(C(=O)NCCCOC(C)C)CC1	·	0	1	i	5	-6	45	3
C=C1CCN([C@@H](C)C(=O)NCc2cc(OC)c(OC)c(OC)c2)S(=O)(=O)c2ccccc21	12	-2	-5	i	-9	·	1	1
COc1ccc(C(O)Cc2nccn2C)cc1 (stereo not given)	3	1	·	·	·	-5	-9	2
O=C(O)C1C2C=CC(C2)C1C(=O)NCCCN1CCCC1=O (stereo not given)	-3	1	-7	i	-13	-4	-12	2
CCOc1cccc(Nc2cc3n(c(=O)n2)CCc2cc(OC)c(OC)cc2-3)c1	-38	4	-5	i	-7	3	6	6
NC(=S)NN=C(c1ccc(Br)cc1)C1CC1	4	0	·	·	·	·	-23	0
COc1cc(S(=O)(=O)NCc2cccnc2)ccc1F	43	0	4	i	4	6	-6	0
O=C(CCn1c(=O)oc2ccccc21)Nc1ccon1	19	4	?	i	2	3	-26	3
COc1ccc(-c2cc(C(=O)NCCCN3CCOCC3)no2)cc1	20	-2	0	i	6	-27	-13	-3
CCOc1ccc(C2NC(=O)c3ccccc3O2)cc1OC (stereo not given)	13	3	-8	i	-9	3	2	-2
Cn1c(-c2cccc([N+](=O)[O-])c2)[n+](C)c2ccccc21	-6	-3	27	i	3	-13	·	-2
O=C(CSC(=S)N1CCCC1)NCCc1ccccc1	-3	2	·	i	·	-13	5	3
CCn1ccnc1CN1CCCC(C(=O)c2ccc3c4c(cccc24)CC3)C1 (stereo not given)	25	-2	4	i	-6	30	-18	-4
CC(C)(C)n1nnnc1CN1CCN(C(c2ccccc2)c2ccccc2)CC1	·	-11	-6	i	1	-1	-25	-2
O=C1NC(=O)C(c2ccccc2)(c2ccc(O)cc2)N1 (stereo not given)	·	0	·	·	·	-14	-12	5
CCOC(=O)C1=CCN(S(=O)(=O)c2ccc(C)cc2)C1c1cccc(C)c1 (stereo not given)	-15	0	·	·	·	·	-10	-4
Cc1ccc(CCNC(=O)CS(=O)Cc2nc(-c3ccccc3F)oc2C)cc1 (stereo not given)	6	-1	-4	i	0	-8	·	0
CCOc1cc(/C=C/c2cc(C(=O)O)c3ccccc3n2)ccc1OC	-12	-2	2	i	?	-6	·	0
COc1cc(N=Nc2c(O)c3ccccc3[nH]c2=O)c(OC)cc1N=Nc1ccccc1	·	1	13	i	13	14	-8	5
CC(C)(C)C(=O)Nc1sc(-c2ccccc2)cc1C(=O)O	-31	10	2	i	10	29	-13	2
CC1CCC(NC(=O)CN2C(=O)c3cccnc3Oc3ccc(Cl)cc32)CC1 (stereo not given)	-10	3	·	i	·	2	·	3
O=C(NC1CC1)c1ccc(-n2cccc2)cc1	0	-1	-15	i	-2	2	·	-2
CCn1c(C2CC(=O)N(c3ccc(C)c(C)c3)C2)nc2ccccc21 (stereo not given)	-27	8	1	i	14	2	2	7
COC(=O)c1cc(CNC(=O)Cc2ccsc2)ccc1OC	-5	0	5	i	5	-7	-21	5
CCOC(=O)C1(C)CCCN(C(=O)c2c(F)cccc2F)C1 (stereo not given)	-7	1	·	·	·	·	-17	1
CCC(=O)NC(=S)NNC(=O)c1ccc([N+](=O)[O-])cc1	-8	5	2	i	5	-3	-13	2
COc1ccc(C)cc1Nc1n[n+](-c2ccccc2)c(-c2ccc(NC(C)=O)cc2)s1	-12	2	-3	i	5	7	-17	4
Cc1cc(C)cc(NC(=O)CN(C)S(=O)(=O)c2cccc3nsnc23)c1	9	2	16	·	-1	-16	4	-2
COc1cccc(/C=N/Nc2cc(-n3nc(C)cc3-c3ccccc3)ncn2)c1O	48	-2	-6	i	10	·	-13	-14
c1ccc(CN2CCC(N=C3NN=C(c4ccc5c(c4)OCCO5)CS3)CC2)cc1	-17	3	-6	i	-10	·	·	3
O=C(c1ccccc1Br)N1CCN(c2ncccn2)CC1	4	0	1	i	-6	3	-7	3
Cc1ccc2c(c1)C(=O)N1[C@H]3c4cc(C)ccc4OC[C@@H]3[C@H](c3ccccc3)[C@]1(C)C(=O)N2	17	-32	·	·	·	43	9	-28
COCCn1c(SCC(=O)N2CCCCCC2)nnc1-c1ccco1	-6	3	4	i	0	-3	-10	4
CCC(CC)CN1C(Nc2ccccc2)=NC[C@@H]1CC(C)C	·	-3	-3	i	-4	-14	-16	2
CC(C(=O)N1CCN(C2c3ccccc3-c3ccccc32)CC1)N1C(=O)c2ccccc2C1=O (stereo not given)	-39	16	4	i	-1	-3	·	-6
Nc1cc(SCc2ccc(Cl)cc2Cl)ncn1	-2	-5	·	·	·	·	-13	-4
O=C(N/C(=C\c1ccc2c(c1)OCO2)C(=O)N1CCOCC1)c1ccccc1Br	0	3	-4	·	-3	-2	-7	5
CCOC(=O)N1CCC(Nc2c(Nc3cccc(CC)c3)c(=O)c2=O)CC1	3	-10	7	i	3	12	-1	-5
CNC(=O)COc1ccc2oc3c(c2c1)CCCC3	-14	1	24	i	2	-7	-10	4
CCNC(=O)CC1S/C(=N/N=C(\C)c2ccccc2)NC1=O (stereo not given)	-6	1	-5	i	9	8	·	2
CCOC(=O)c1c(C)[nH]c(/C(C)=N/NC(=O)c2cccnc2)c1C	-35	6	·	·	·	·	1	8

Compound profiles, as listed above:
Cc1cc(C)cc(NC(=O)CN(C)S(=O)(=O)c2cccc3nsnc23)c1 across the screens: Env fusion inh = 9; MT1-MMP act inh = 2; PABP FP inh = 16; Rce1 inhib = ·; eIF4H inh = -1; CSC inhib = -16; UUG fidelity = 4; MT1-MMP act inh RFP = -2
O=C(c1ccccc1Br)N1CCN(c2ncccn2)CC1 across the screens: Env fusion inh = 4; MT1-MMP act inh = 0; PABP FP inh = 1; Rce1 inhib = i; eIF4H inh = -6; CSC inhib = 3; UUG fidelity = -7; MT1-MMP act inh RFP = 3

Carrying on.
Molecule	Env fusion inh	MT1-MMP act inh	PABP FP inh	Rce1 inhib	eIF4H inh	CSC inhib	UUG fidelity	MT1-MMP act inh RFP
CC(C)(C)NC(=O)c1ccnc(C(C)(C)C)c1	2	0	1	i	0	·	2	1
CCN(CC(=O)Nc1ccccc1C(F)(F)F)C(=O)CCOc1ccccc1C	8	0	·	i	·	13	-4	3
COc1ccc2nc3n(c(=O)c2c1)-c1ncccc1C(=O)NC3Cc1ccccc1 (stereo not given)	-5	1	·	·	·	·	3	3
Cc1ccc(NS(=O)(=O)c2ccc(C(=O)NCCN3CCOCC3)cc2)cc1	-1	6	·	·	·	-6	-6	-1
CCCCCOc1ccc(C(=O)NCC2(c3ccccc3)CCOCC2)cc1	36	-4	0	i	-1	5	-6	-8
CCOC(=O)N1CCN(C(=O)COc2ccccc2[N+](=O)[O-])CC1	8	-2	2	i	6	-12	·	5
CC(=O)N1CCN(C(=O)c2ccc(Cl)c(NC(=O)c3cccs3)c2)CC1	-3	-1	·	i	·	2	·	2
O=C(Cn1cnc([N+](=O)[O-])n1)N/N=C/c1ccc(O)cc1O	14	0	15	i	9	80*	·	-4
O=[N+]([O-])c1cccc(CON=Cc2ccccc2O)c1	16	0	·	·	·	·	-11	-4
CC12CN(Cc3ccccc3)CC(C)(CN(Cc3ccccc3)C1)C2=NO	-419	-2	-6	i	3	10	7	2
NC(=O)c1cc[n+](CC2=C(C(=O)O)N3C(=O)[C@@H](NC(=O)C(c4ccccc4)S(=O)(=O)[O-])[C@H]3SC2)cc1 (stereo not given in full)	·	-7	-11	i	-2	-11	-45	5
CC(=O)C[C@H](O)CC(=O)[C@H]1OC(=O)CCCCCCCc2ccccc21	-4	-17	·	·	·	13	-11	0
CCc1nc(NCCCN2CCOCC2)c2oc3ccccc3c2n1	·	1	20	i	4	-7	-12	2
O=C(c1ccc(Cl)cc1)C1CCN(Cc2ccccc2)CC1	6	-2	-7	i	-2	-4	22	0
Cn1ccc2cc(-c3csc(N4CCC(C(N)=O)CC4)n3)ccc21	-16	1	·	·	·	-22	-8	1
CC1=C(N2CCOCC2)CCC1=O	-5	1	·	i	·	-11	-5	8
CC(C)(/C=N/O)/[N+]([O-])=C/c1ccccc1	-6	0	5	i	-4	-12	-23	3
CCOc1ccccc1NC(=S)NC(=O)CCc1ccccc1	-44	-1	3	i	-3	·	-19	-3
O=C(c1cnn2ccccc12)N(Cc1ccco1)C1CCCC1	16	-4	-4	i	3	69	-28	-1
O=C(CSc1nnc(-c2ccccc2)n1C1CCCCC1)N1CCCC1	·	3	4	i	-1	-7	-10	2
O=C(C1=C[C@H](c2ccccc2)C[C@H](OCCCCO)O1)N1CCN(Cc2ccc3c(c2)OCO3)CC1	-8	7	4	i	1	-5	0	2
Clc1ccc(CSc2nnc(-c3ccncc3)s2)cc1	-12	-4	-2	i	2	3	-9	-9

Compound activity deposited in PubChem by several laboratories.

These rows are one share of the data, so the mix of outcomes need not match the whole.
